Cruzain Triton: qHTS Assay for Promiscuous and Specific Inhibitors of Cruzain (with detergent); Cruzipain (Trypanosoma cruzi), P25779; purified cruzain, Z-FR-AMC fluorescence, 0.01% Triton; Potency, µM, inactives show max response, negative = inhibition, actives largely listed as inhibitors; 200,000 compounds, 0.43% hits; AID 1478, 2009; active = well fitted curve in the direction sought with a large enough effect; inconclusive = small, poorly fitted or top-dose-only effect, or another doubt; inactive = no such curve, though single readings can be large; an effect the other way counts as inactive or inconclusive;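 also: plate controls were neutral wells for no effect and buffer without enzyme for full effect; nearly all actives have a fitted effect of over 40% in size; top concentration of the series not given in the record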
Target sequence (P25779 123-467 limits assumed): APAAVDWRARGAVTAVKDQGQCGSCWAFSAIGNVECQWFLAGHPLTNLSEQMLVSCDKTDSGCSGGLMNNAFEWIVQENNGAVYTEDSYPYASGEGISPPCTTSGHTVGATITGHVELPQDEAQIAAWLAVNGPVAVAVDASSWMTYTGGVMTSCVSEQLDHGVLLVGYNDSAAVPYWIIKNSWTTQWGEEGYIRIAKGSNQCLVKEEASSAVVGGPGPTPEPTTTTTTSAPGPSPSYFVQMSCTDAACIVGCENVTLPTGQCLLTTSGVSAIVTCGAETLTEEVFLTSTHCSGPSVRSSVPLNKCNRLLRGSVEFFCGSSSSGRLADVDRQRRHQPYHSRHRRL
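Purified cruzain (1.5 nM final) was preincubated with compounds for 15 min at room temperature in 100 mM sodium acetate pH 5.5, 5 mM DTT, 0.01% Triton X-100. Reaction started with 2 uM Z-FR-AMC; AMC fluorescence change over 60 s gave activity.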
LASV entry inh: qHTS for Inhibitors of binding or entry into cells for Lassa Virus; 300,000 compounds, 1.2% hits; AID 540256, 2011; Potency, µM (doses to about 37.9 µM), for the others: top-dose activity change, negative = inhibition, most hits filed as inhibitors; Lassa virus pseudotype entry inhibition, cell reporter; control for the full effect not named in the record; active means well fitted inhibition curve with a large enough effect; inconclusive means small, poorly fitted or top-dose-only effect, or effect the other way; inactive means flat fitted curve, though single readings scatter; tested in HEK293 cells; also: % is scaled to controls: 0 for no effect and ±100 for the full control effect; nearly all actives have a fitted effect of over 50% in size; luciferase read-out
Marburg entry inh: qHTS for inhibitors of binding or entry into cells for Marburg Virus; Marburg virus pseudotyped entry inhibition, cell reporter; control for the full effect not named in the record; about a third of the inactives were read at about 46 µM; Potency, µM (doses to about 37.8 µM), without a hit: at the top dose activity change, negative = inhibition, usual class: inhibitors; 300,000 compounds, 1.8% hits; active = well fitted inhibition curve with a large enough effect; inconclusive = small, poorly fitted or top-dose-only effect, or effect the other way; inactive = flat fitted curve, though single readings scatter; tested in HEK293 cells; about a fifth of its hits are not listed in these tables; also: % is scaled to controls: 0 for no effect and ±100 for the full control effect; luciferase read-out
NS1 inh: qHTS Assay for Inhibitors of Influenza NS1 Protein Function | S. cerevisiae slowed by influenza A NS1, growth recovery by OD600 | Potency, µM (titrated, usually from 46.1 µM), without a hit: top-dose activity, positive = more growth | 270,000 compounds, 0.4% hits | AID 2326, 2010; also: actives are rising curves; nearly all actives have a fitted effect of over 50% in size
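Recovery from NS1-induced slow growth read by OD600 in budding yeast switched to galactose assay medium (pH 6.0, -URA) at 1:100 dilution. Compound 23 nl per well; the matching strain lacking NS1 serves as control.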
2A StopGo: High Throughput Screening for Foot and Mouth Disease Virus Antivirals; human cells with a luciferase reporter of 2A StopGo recoding; control for the full effect not named in the record; Potency, µM (top dose mostly 57.9 µM), for the others: top-dose signal change, negative = less light; 410,000 compounds, 1.2% hits; AID 1159524, 2015; active = well fitted falling curve with a large enough effect; inconclusive = small, poorly fitted or top-dose-only effect; inactive = no such curve, though single readings can be large or run the other way; tested in HEK293T cells; also: % is scaled to controls: 0 for no effect and ±100 for the full control effect; nearly all actives have a fitted effect of over 45% in size; luciferase light after 4 h
Cruzain noTriton: qHTS Assay for Promiscuous and Specific Inhibitors of Cruzain (without detergent) | purified cruzain, Z-FR-AMC fluorescence, no detergent | 200,000 compounds, 2.3% hits | Potency, µM, for inactives: max response, negative = inhibition, actives largely listed as inhibitors | Cruzipain (Trypanosoma cruzi), P25779; active = well fitted curve in the direction sought with a large enough effect; inconclusive = small, poorly fitted or top-dose-only effect, or another doubt; inactive = no such curve, though single readings can be large; an effect the other way counts as inactive or inconclusive;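 also: plate controls were enzyme without inhibitor for no effect and buffer without enzyme for full effect; nearly all actives have a fitted effect of over 40% in size; top concentration of the series not given in the record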
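Detergent-free condition (0.00005% Triton X-100) in acetate buffer pH 5.5 with DTT. 1.5 nM enzyme and compound were pre-mixed 15 min, then 2 uM Z-FR-AMC substrate added; reaction progress from fluorescence change between first and third reads (60 s).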
SARS PLP yeast: qHTS of Yeast-based Assay for SARS-CoV PLP. S. cerevisiae expressing SARS-CoV PLpro, growth rescue; control for the full effect not named in the record. Potency, µM (doses to about 32.9 µM), for the others: at the highest dose activity, positive = growth rescue. 330,000 compounds, 0.19% hits; also: 0% is about no effect; nearly all actives have a fitted effect of over 55% in size; growth read by luminescence after 48 h
RE007 growth inh: qHTS Assay for Inhibitors of the HIV-1 protein Vpr; S. pombe RE007 Vpr strain, BacTiter-Glo ATP luminescence, 24 h; control for the full effect not named in the record; Potency, µM (titrated, usually from 92.2 µM), for inactives: at the top dose activity change, negative = less growth; 360,000 compounds, 0.21% hits; AID 651644, 2012; active = well fitted falling curve with a large enough effect; inconclusive = small, poorly fitted or top-dose-only effect; inactive = no such curve, though single readings can be large or run the other way;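 also: % is scaled to controls: 0 for no effect and ±100 for the full control effect; nearly all actives have a fitted effect of over 50% in size; the assay follows cell death caused by Vpr and the record does not say whether a fall means rescue or toxicity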
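Fission yeast strain RE007, carrying one chromosomally integrated HIV-1 vpr copy, was seeded at OD 0.01 in PMG+AL medium with 23 nL pinned compound. After 24 h at 30 °C and 99% humidity, viability was read by BacTiter-Glo luminescence.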
* hit, by the source's call; ? = inconclusive; · = not tested or not shown; & = joins results of further samples; [ ] = dose if it differs, or a comment. Unless noted, calls follow the shape of the dose curve; as a rule, active means well fitted rising curve with a large enough effect; inconclusive means small, poorly fitted or top-dose-only effect; inactive means no such curve, though single readings can be large or run the other way. Potency is read from the fitted curve at half-maximal effect.

SMILES | Cruzain Triton | LASV entry inh | Marburg entry inh | NS1 inh | 2A StopGo | Cruzain noTriton | SARS PLP yeast | RE007 growth inh
O=C(O)c1cc(S(=O)(=O)N2CCCCC2)ccc1Cl | · | 12% | 6% | 13% | 7% | · | 1% | 6%
COc1cccc(OC)c1C(=O)NCC12CC3CC(C1)CC(CNC(=O)c1c(OC)cccc1OC)(C3)C2 | · | · | · | 9% | -10% | · | 1% | -4%
COc1ccc(Cl)cc1-c1csc(N)n1 | · | · | · | -44% | 22% | · | -6% | -11%
C=CCN(C(=O)CNC(=O)c1ccco1)C(C(=O)NC1CCCCC1)c1cccnc1 (stereo unspecified) | · | 8% | -2%[46.1 µM] | 3% | 5% | · | 0% | -11%
CC(Sc1nc(N2CCOCC2)c2c(c1C#N)CC(C)(C)OC2)C(=O)Nc1ccccc1 (stereo unspecified) | -3.5% | -4% | ? | -2% | -14% | ? | 16% | 13%
Fc1ccc(-c2csc(Nc3ccccn3)n2)c(F)c1 | · | · | · | -1% | -6% | · | 2% | -10%
C=CCn1c(SCC(=O)N(CC)C2CCS(=O)(=O)C2)nc2ccccc2c1=O (stereo unspecified) | · | · | · | 1% | 4% | · | 0% | 1%
CCC(=O)Nc1ccc2c(c1)ncn2-c1ccccc1C | · | -5%[46.1 µM] | -3%[46.1 µM] | -1% | 14% | · | 0% | 4%
CCOc1ccc(NC(=O)CN(C)C(=O)Cc2sc(C)nc2-c2ccc(F)cc2)cc1OCC | · | 19% | 2% | · | -13% | · | 0% | 7%
COc1cc(/C=N/Nc2nc3ccccc3[nH]2)cc(OC)c1O | -27% | 1% | ? | 12% | -4% | ? | -37% | 1%
CN(Cc1ccccc1)C(=O)c1ccc2c(c1)OCO2 | 0.4% | -2% | 6% | 1% | 70%[activator] | 13% | 22% | 14%
O=C(NCCc1nc2ccccc2[nH]1)/C(=C/c1ccc2c(c1)OCO2)NC(=O)c1ccc(Cl)cc1Cl | ? | ? | ? | -25% | -21% | 13% | -7% | -5%
Cc1sc2nc(-c3cccs3)oc(=O)c2c1C | · | · | · | -4% | 24% | · | -1% | 10%
COc1cc(Cl)c(C)cc1NC(=O)COC(=O)CCc1nc2ccccc2c(=O)[nH]1 | · | 22% | 13%[46.1 µM] | · | -21% | · | -1% | 3%
COc1ccc2[nH]c(=O)c(CN(CCCN3CCOCC3)C(=O)NCc3ccccc3)cc2c1 | 2.5% | 13% | -23%&-23% | 7% | -4% | 9% | 5% | 10%
Cc1c(C(=O)N(C)C)c2cc(Cl)ccc2n1O | -0.4% | 1%[46.1 µM] | -23% | 6% | -14% | 6% | 14% | 19%
Cc1c(NS(=O)(=O)c2cc(C(=O)Nc3ccc(F)cc3Cl)ccc2Cl)c(=O)n(-c2ccccc2)n1C | · | 3% | 4% | · | -11% | · | · | -4%
CCOc1ccc(NC(=O)Nc2nnc(CC(=O)NCc3ccccc3)s2)cc1 | · | ? | ? | 5% | -6% | · | 0% | 9%
CSc1ncc(Cl)c(C(=O)NCc2cccnc2)n1 | · | -29% | 16% | 2% | -23% | · | -1% | 22%
Cn1nccc1C(=O)OCC(=O)Nc1ccccc1Cl | · | 16%[46.1 µM] | 11%[46.1 µM] | 2% | 10% | · | 5% | 0%
Cc1ccc(OCC(=O)Nc2nnc(S(=O)(=O)N3CCCCC3)s2)cc1 | · | · | · | -2% | -13% | · | -11% | 16%
CC1CC1C(=O)N(C)CC(=O)Nc1ccc(Cl)c(C(F)(F)F)c1 (stereo unspecified) | · | 1% | ? | · | -24% | · | ? | 1%
C=CCc1ccc(OCCCN2CCCC(C)C2)c(OC)c1 (stereo unspecified) | -3.7% | -20% | ? | -86% | -4% | -4% | 7% | 5%
O=C(O)CN1C(=O)/C(=C\c2ccccc2OCc2ccc(Cl)cc2Cl)SC1=S | · | 9%[46.1 µM] | -15%[46.1 µM] | 18% | 25µM* | · | 0% | ?
O=C(CSc1ccccn1)Nc1nc2ccc(Br)cc2s1 | -9.5% | 3% | 20% | -5% | 20% | 11% | -13% | -14%
(list continues)
SMILES | Cruzain Triton | LASV entry inh | Marburg entry inh | NS1 inh | 2A StopGo | Cruzain noTriton | SARS PLP yeast | RE007 growth inh
CSC1=N/C(=C\c2cccc(Cl)c2)C(=O)N1N(C)C | · | · | -4% | -8% | -7% | · | -2% | -15%
O=C(O)CCC(NC(=O)c1ccc(Cl)cc1)C(=O)O (stereo unspecified) | · | 6% | 2%[46.1 µM] | 3% | -6% | · | 0% | -7%
CCN(CC)C(=O)CSc1nc(-c2ccccc2)cc(=O)[nH]1 | · | -25% | ? | 4% | 11% | · | 1% | -21%
CC1=NN(C(=O)c2c(Br)cnn2C)C(O)(C(F)(F)F)C1 (stereo unspecified) | 3.0% | 1% | ? | 1% | -4% | 3% | 1% | -5%
CCOc1ccccc1CN1CCN(C2CCOCC2)CC1CCO (stereo unspecified) | · | 8%[46.1 µM] | 4%[46.1 µM] | 0% | -5% | · | 1% | -6%
O=C1NC2(CCCCCC2)C(=O)N1Cc1ccc(F)cc1Cl | · | 3% | 4% | -6% | -5% | · | -2% | -9%
Cc1ccc(C(=O)NCC(=O)OCC(=O)c2ccc3c(c2)NC(=O)CO3)cc1 | · | 16%[46.1 µM] | ? | 1% | -8% | · | 1% | 141%
O=C(O)/C=C/C(=O)N(Cc1ccccc1)Cc1ccco1 | -2.0% | -3% | -9% | 1% | 13% | 3% | 28% | -6%
COC(=O)C(Cc1ccc(O)cc1)NC(=O)c1ccc2c(c1)OCCO2 (stereo unspecified) | · | -11% | 11%[46.1 µM] | 5% | -15% | · | 2% | -2%
CCN(CC)C(=O)Cn1cc(S(=O)(=O)CC(=O)Nc2ccc(F)cc2)c2ccccc21 | · | -5% | ? | · | 14% | · | · | -9%
CSc1ccc(/C=N/NC(=O)COc2ccc(Br)cc2Cl)cc1 | -0.2% | ? | -24% | -4% | 1% | 25µM* | 0% | -10%
COc1ccc(-n2nnc3c(=O)n(Cc4cc(C)ccc4C)cnc32)cc1 | -3.7% | 1.2µM* | -23% | 13% | 6% | 21% | 0% | 13%
CCN(CC)C(=O)c1sc(NC(=O)Cc2cccs2)c(C#N)c1C | -1.1% | -7% | 5% | -13% | 5% | 3% | -1% | -11%
O=c1[nH]c2ccccc2n1CCC1CCCCC1 | -9.7% | 2% | -18% | -156% | 36%[activator] | -4% | -7% | -14%
COC(=O)c1ccc(C(=O)OC)c(NC(=O)CN2CCC(C)CC2)c1 | · | 0% | -7%[46.1 µM] | · | ? | · | 7% | 18%
COc1cc(OC)c(NC(=O)c2sc3nc4n(c(=O)c3c2C)CCCC4)cc1Cl | -6.7% | 8%[46.1 µM] | · | · | 10% | ? | · | ·
CSc1nc2nccc(-c3ccc(Oc4ccccc4)cc3)n2n1 | -5.5% | 16µM* | ? | -7% | -28% | 3% | -5% | 0%
CC1(C)Cc2c(sc3nnn(CC(=O)Nc4ccccc4)c(=O)c23)CO1 | · | -12% | -13% | 1% | -14% | · | 0% | -6%
Cc1ccc(NS(=O)(=O)c2cccs2)c(C)c1 | · | 0%[46.1 µM] | -28%[46.1 µM] | 1% | 9% | · | -21% | 6%
COc1ccccc1NC(C)C(=O)Nc1ccc(C(C)=O)cc1 (stereo unspecified) | 0.0% | ? | ? | ? | -3% | -3% | 35% | -8%
FC(F)(F)c1cc(-c2cccs2)nc(-n2cc(Br)cn2)n1 | -4.8% | 1% | 2% | -5% | ? | -9% | -7% | -7%
CCN(CC)S(=O)(=O)c1cccc(NC(=O)COC(=O)c2n[nH]c(=O)c3ccccc23)c1 | · | -2% | 7%[46.1 µM] | · | ? | · | 0% | 5%
O=[N+]([O-])c1cccc(/C=N/n2c(COc3ccccc3)n[nH]c2=S)c1 | -6.0% | -25% | -2% | 1% | -7% | -14% | -9% | 1%
Cc1cc2nc(SCC(=O)N(C)C)c3c(c2cc1C)CCCC3 | -18% | -18% | -28% | 17% | · | ? | -8% | 4%
CC1CCCCN1C(=O)C1CCCN(S(=O)(=O)c2cccc3nsnc23)C1 (stereo unspecified) | · | · | · | 3% | 5% | · | ? | -13%
(listing goes on)
SMILES | Cruzain Triton | LASV entry inh | Marburg entry inh | NS1 inh | 2A StopGo | Cruzain noTriton | SARS PLP yeast | RE007 growth inh
Cc1ccccc1CN1C(=O)c2ccccc2S1(=O)=O | · | 5%[46.1 µM] | -1%[46.1 µM] | 2% | -17% | · | -2% | 9%
C=CCOC(=O)C1=C(C)NC(SC)=C(C#N)C1c1ccc(OCC)cc1 (stereo unspecified) | -5.7% | ? | ? | -52% | 11%&-19% | -4% | 4% | -6%&3%
CC(C)N(Cc1ccccc1)C(=O)COC(=O)C1CCN(S(=O)(=O)c2ccc3c(c2)OCCO3)CC1 | · | -15% | 4%[46.1 µM] | · | -25% | · | -7% | 2%
CC(NC1CCCCC1)C(=O)NN=C(c1ccccc1)c1ccccc1 (stereo unspecified) | · | ? | -5%[46.1 µM] | -6% | -27% | · | -2% | 7%
CCOC(=O)c1c(C)[nH]c(C)c1C(=O)COC(=O)c1ccc(Cl)nc1 | · | 12%[46.1 µM] | 2%[46.1 µM] | · | -7% | · | 1% | -5%
O=C1CCCc2cc(S(=O)(=O)NCC3CCC(C(=O)NCc4ccccc4Cl)CC3)ccc2N1 (stereo unspecified) | -8.0% | 8%[46.1 µM] | · | · | 6% | 2% | · | ·
CC(Sc1nccn1C)C(=O)Nc1ccccc1 (stereo unspecified) | · | · | · | -4% | -4% | · | 0% | 4%

Screens (PubChem)
